D2 ag: activates the human D2 dopamine receptor; hit rate 0.084% among 360,000; activation, % (test concentration not listed); DiscoveRx PathHunter D2 beta-arrestin, luminescence, 90 min; 100% = 57 uM dopamine signal; P14416; in the data active = activation above about 40%; inconclusive = about 15% to 40%; inactive = below about 15%; note: compound concentration not given in the record; the text of the record calls up to 30% inactive
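Agonist mode: compounds alone added to overnight-plated D2 PathHunter cells for 90 min at 37 C, with 57 uM final dopamine (EC100) defining full response. Beta-arrestin recruitment detected by chemiluminescent reagent, read after 1 h at ambient temperature.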
Six1-Eya2 inh: inhibitors of human Six1/Eya2 interaction. Q15475+O00167. AlphaScreen GST-Six1/His-Eya2 binding, biochemical; active compounds read low; control for the full effect not named in the record. activity change, % (no concentration beside the values). hit rate 0.56% among 360,000. AID 651725; in the data active = activity change below about -65%; inconclusive = about -30% to -65%; inactive = above about -30%; note: % is set by controls: 0 for no effect and ±100 for the full control effect
Target sequence (O00167 whole entry, looked up): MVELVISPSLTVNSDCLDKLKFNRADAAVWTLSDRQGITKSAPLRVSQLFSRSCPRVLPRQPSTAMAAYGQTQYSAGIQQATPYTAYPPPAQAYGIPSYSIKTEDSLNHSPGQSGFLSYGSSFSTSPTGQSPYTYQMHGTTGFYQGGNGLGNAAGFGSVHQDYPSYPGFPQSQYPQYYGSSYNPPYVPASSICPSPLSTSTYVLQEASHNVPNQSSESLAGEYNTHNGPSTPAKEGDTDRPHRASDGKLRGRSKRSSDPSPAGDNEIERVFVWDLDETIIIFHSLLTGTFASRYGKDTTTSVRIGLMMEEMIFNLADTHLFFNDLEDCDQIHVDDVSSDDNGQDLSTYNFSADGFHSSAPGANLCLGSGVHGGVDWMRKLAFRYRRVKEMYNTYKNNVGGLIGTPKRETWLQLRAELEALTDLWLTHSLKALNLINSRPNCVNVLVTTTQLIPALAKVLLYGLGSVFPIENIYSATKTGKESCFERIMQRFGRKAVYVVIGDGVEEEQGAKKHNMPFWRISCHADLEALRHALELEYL
Target sequence (Q15475 whole entry, looked up): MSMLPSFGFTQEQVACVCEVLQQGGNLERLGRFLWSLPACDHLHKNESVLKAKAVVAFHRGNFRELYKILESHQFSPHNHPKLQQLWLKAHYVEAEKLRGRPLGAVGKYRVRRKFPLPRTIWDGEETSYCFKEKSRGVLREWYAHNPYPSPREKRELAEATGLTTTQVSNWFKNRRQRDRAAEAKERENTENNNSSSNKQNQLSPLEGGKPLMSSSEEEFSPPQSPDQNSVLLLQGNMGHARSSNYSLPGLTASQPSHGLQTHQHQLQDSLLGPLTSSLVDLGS
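AlphaScreen luminescence read after one hour at 37 °C in darkness. Pin-transferred compounds met GST-Six1 and His-Eya2 protein (5X stock 250 nM/500 nM) plus glutathione donor and Ni-chelate acceptor beads (5X, 50 ug/mL).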
CtBP-E1A inh: CtBP/E1A binding inhibition | AlphaScreen GST-E1A/His-CtBP binding, 1536-well; active compounds read low; control for the full effect not named in the record | activity change, % (concentration not given with the values) | hit rate 0.49% among 340,000 | AID 651724; in the data active means activity change below about -65%; inconclusive means about -30% to -65%; inactive means above about -30%; note: % is set by controls: 0 for no effect and ±100 for the full control effect
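Homogeneous bead-based format: GST-tagged E1A captured on glutathione donor beads, His-tagged CtBP on nickel acceptor beads; compounds precede bead addition by 2 h at 37 °C.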
D2 potentiator: positive allosteric modulators of human D2 dopamine receptor | P14416 | DiscoveRx D2 beta-arrestin cells, luminescence, 90 min; 100% = 57 uM dopamine signal | potentiation, % (concentration not given with the values) | hit rate 0.23% among 360,000 | AID 624464; active = potentiation of 50% or more; inconclusive = 30% to 50%; inactive = 30% or less;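 note: compound concentration not given in the record; tested on top of an EC20 dose of dopamine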
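PathHunter D2 cells, attached overnight at 37 deg C, received compound in DMSO plus dopamine at EC20 (50 nM final) for 90 min at 37 deg C. Beta-arrestin recruitment was read as luminescence after 1 h with detection reagent at ambient temperature.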
TRPML1 ag: agonists of human TRPML1 channel; Q9GZU1; TRPML1-expressing cells, Ca2+ dye fluorescence, FDSS; host cell line not named in the record; reference of the full effect not given here; AID 624414; activation, % (concentration not given with the values); hit rate 0.12% among 410,000; in the data active = activation above about 50%; inconclusive = about 30% to 50%; inactive = below about 30%; note: 0% is about no effect; the text of the record puts the active cut at 80%
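In this qHTS format, compounds were pin-transferred onto Ca8-dye-loaded TRPML1-DL cells induced with Tet overnight, and intracellular Ca2+ fluorescence was recorded kinetically for 110 s after a 10 s baseline. A subsequent 4uM final 54-4 (EC80) addition followed by a second 110 s read served as the antagonist phase.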
PINK1 modulator: changes PINK1 expression; PINK1 immunofluorescence, high-content cytometry, 24 h; Potency, µM (top dose mostly 76.6 µM), for inactives: at the top dose activation (PINK1 increase), hits mostly activators; hit rate 0.2% among 410,000; active = well fitted activation curve with a large enough effect; inconclusive = small, poorly fitted or top-dose-only effect; inactive = flat fitted curve, though single readings scatter; cell line not stated here;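 note: potency is the fitted concentration of half-maximal effect; % of control where 0% means no effect; nearly all actives have a fitted effect of over 65% in size; a mitochondrial uncoupler was the plate control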
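Decision-based qHTS: stable cells, 24 h exposure to five compound concentrations, CCCP as control. Fixed cells stained for PINK1 plus nuclear, mitochondrial and cell markers, cytometer read.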
* = called active by the depositor; ? = inconclusive; nt = not tested or not shown; & = joins results of further samples; [ ] = remark or other dose.

Start of the data: the first 3 records (preview)
compound	D2 potentiator	D2 ag	TRPML1 ag	CtBP-E1A inh	Six1-Eya2 inh	PINK1 modulator
CC1Cc2nc(SCC(=O)NCC3CCCO3)n(Cc3ccccc3)c(=O)c2S1 (configuration not stated)	-5	-1.3	-0.3	11	0	nt
CCOc1ccc(CNC(=O)CCC(=O)N2CCSc3ccccc32)cc1	-1	-2.7	0.0&1.6	7	4	-0.4%&1.1%
Cc1ccc(C(C)C)c(OCC(=O)NS(=O)(=O)c2ccc(Cl)cc2)c1	13	1.1	0.5	6	-17	0.5%

The list itself, from the start:
compound	D2 potentiator	D2 ag	TRPML1 ag	CtBP-E1A inh	Six1-Eya2 inh	PINK1 modulator
CC1Cc2nc(SCC(=O)NCC3CCCO3)n(Cc3ccccc3)c(=O)c2S1 (configuration not stated)	-5	-1.3	-0.3	11	0	nt
CCOc1ccc(CNC(=O)CCC(=O)N2CCSc3ccccc32)cc1	-1	-2.7	0.0&1.6	7	4	-0.4%&1.1%
Cc1ccc(C(C)C)c(OCC(=O)NS(=O)(=O)c2ccc(Cl)cc2)c1	13	1.1	0.5	6	-17	0.5%
CNc1ccc(Cl)cc1C(N)=O	-2	-4.4	-0.4	-1	-1	2.5%
CCCCN(C)C/C(O)=C(\C#N)c1nc(-c2ccccc2)cs1	-10	-1.8	-0.5	-14	-5	-3.5%
COc1ccccc1NS(=O)(=O)c1cccc(C(=O)N/N=C2\CC(=O)CC(C)(C)C2)c1	-7	-2.9	0.4	6	1	-0.7%
Cc1ccc(C2N(c3ccc(Cl)c(Cl)c3)C(=O)C3CCCN32)o1 (configuration not stated)	-10	-2.0	0.3	-2	-3	-0.6%
Cc1ccc(S(=O)(=O)N2CCN(C(=O)NCc3ccc(F)cc3)CC2)c(C)c1	-4	4.3	-0.3	-1	-2	-1.7%
Cc1ccc(-n2ncc3c2CC(C)(C)CC3NC(=O)CCc2cccnc2)cc1 (configuration not stated)	-17	-1.4	0.3	1	7	0.0%
COc1ccc(-n2nnc3c(=O)n(CC(=O)Nc4cc(C)on4)cnc32)cc1OC	1	-2.1	0.0	-2	1	3.8%
COc1ccc(C(=O)N/N=C\C(C)=C\c2ccccc2)cc1OC	-3	-5.5	-0.1	-1	10	6.6%
Cc1cc(C)cc(C(O)c2ncc(-c3ccccc3)[nH]2)c1 (configuration not stated)	-8	-4.6	-0.5	-9	-6	-0.7%

Profiles as entered above:
Shown for `Cc1ccc(S(=O)(=O)N2CCN(C(=O)NCc3ccc(F)cc3)CC2)c(C)c1` : D2 potentiator: -4; D2 ag: 4.3; TRPML1 ag: -0.3; CtBP-E1A inh: -1; Six1-Eya2 inh: -2; PINK1 modulator: -1.7%
Shown for `CCOc1ccc(CNC(=O)CCC(=O)N2CCSc3ccccc32)cc1` : D2 potentiator: -1; D2 ag: -2.7; TRPML1 ag: 0.0&1.6; CtBP-E1A inh: 7; Six1-Eya2 inh: 4; PINK1 modulator: -0.4%&1.1%

More compounds follow.
compound	D2 potentiator	D2 ag	TRPML1 ag	CtBP-E1A inh	Six1-Eya2 inh	PINK1 modulator
CCOC(=O)c1cc(S(=O)(=O)N2CCC(C)CC2)cn1C	-1	0.6	0.1	nt	1	1.4%
Clc1cc(Br)ccc1OCCCn1ccnc1	-6	1.6	0.2	-26	-5	-2.1%
O=C(NC1CCCC1)c1ccc([N+](=O)[O-])s1	-3	1.4	-1.0	-13	4	1.8%
COc1ccc(CCNc2cc(C)nc3c(-c4ccc(Cl)cc4)c(C)nn23)cc1OC	-8	0.9	0.1	9	4	0.8%
NC(=O)CSc1nnnn1-c1cccc(Cl)c1	-3	1.6	0.6	-5	3	0.3%
CCN(c1ccccc1)S(=O)(=O)c1cc(CN2C(=O)c3cccnc3C2=O)ccc1OC	4	0.9	-0.8	-4	-2	-1.0%
COc1cccc(CSc2nc3ccncc3[nH]2)c1	-4	0.5	-1.1	5	4	0.1%
O=C1C2C3c4ccccc4C(c4ccccc43)C2C(=O)N1Cc1ccccn1 (configuration not stated)	4	5.5	-0.3	6	-4	-0.2%
CN(C)c1ccc(NC(=O)Oc2ccccc2)cc1	23	0.6	-1.0	-9	-21	2.4%
CC1(C)C=Cc2cc3ccc(=O)oc3cc2O1	-6	2.1	0.0	0	9	0.2%
c1ccc2[nH]c(CSc3ncnc4c3oc3ccccc34)nc2c1	-3	0.0	2.3	37	5	0.6%[38.3 µM]
CC(C)Cn1c2c(c(O)c(C(=O)Nc3ccc(F)cc3)c1=O)CCCC2	5	-4.0	1.4	-1	7	1.7%

compound	D2 potentiator	D2 ag	TRPML1 ag	CtBP-E1A inh	Six1-Eya2 inh	PINK1 modulator
NC(=O)[C@@H]1CC2(CC(c3cccc(NC(=O)CC(c4ccccc4)c4ccccc4)c3)=NO2)CN1C(=O)c1ccc(Cl)cc1 (some centres not stated)	13	2.2	-0.1	nt	4	2.6%
Cc1c(C(=O)NCc2ccc(C(C)C)cc2)sc(=O)n1Cc1ccc(S(=O)(=O)N(C)C)cc1	3	10.0	-0.5	2	-2	0.0%
CCN(CC)CCCn1c2c(c(SCC(=O)Nc3nc4ccccc4s3)nc1=O)CCC2	-22	-1.8	0.3	-1	7	1.6%
COc1ccc(CCC(C)NCc2ccccc2OC)cc1 (configuration not stated)	-2	-6.3	0.0	1	-2	0.9%
O=C1C(=O)N(CCN2CCOCC2)C(c2ccc(Cl)c(Cl)c2)/C1=C(/O)c1ccc2c(c1)OCO2 (configuration not stated)	-11	7.4	0.6	2	-10	0.0%
O=C(c1ccccc1)c1ccc2cc(O)ccc2c1	-7	-2.9	-1.1	2	1	6.0%
CN(CC(=O)Nc1ccc(Cl)cc1)CC(=O)Nc1cccc2ccccc12	-10	-1.5	-0.9	nt	-12	0.6%
COc1ccc(NC(=O)CS(=O)(=O)c2ccc(Br)cc2)cc1	-11	-4.3	1.7	4	-1	2.9%
Cc1ccc(CNC(=O)CN2C(=O)c3ccccc3S2(=O)=O)cc1	0	8.6	0.2	-21	-2	7.0%
COc1ccc(-c2nc3cc([N+](=O)[O-])ccc3o2)cc1	14	0.9	0.9	12	7	4.4%
N#CCSc1ncccc1-c1nc2ccccc2[nH]1	-4	-1.4	-0.5	5	-4	-1.2%
CCN1C(=O)/C(=C/c2cc(C)n(C)c2C)SC1=Nc1ccc(OC)cc1	-4	-4.2	2.9	?	-29	7.0%

compound	D2 potentiator	D2 ag	TRPML1 ag	CtBP-E1A inh	Six1-Eya2 inh	PINK1 modulator
O=C1CCC/C(=N\NC(=O)c2ccc(CSc3cccc4cccnc34)cc2)C1	-4	-2.6	-0.3	-1	-9	1.5%
CCC(OC(=O)c1nsc(Cl)c1Cl)C(=O)NCc1cccs1 (configuration not stated)	-4	-2.2	-0.6	6	2	1.7%
CCOC(=O)[C@H]1[C@H]2COc3ccc(OC)cc3[C@@H]2N2C(=O)CN(CC3CCCO3)C(=O)[C@@]12C (some centres not stated)	1	0.9	-0.2	2	3	0.7%
Cn1nc(-c2ccc(Cl)cc2)c2cc(C(=O)NCCCN3CCOCC3)sc21	-15	-3.6	-0.4	-8	-20	1.2%
CC(C)=CCCC(C)N(C=O)C(C)CCC=C(C)C (configuration not stated)	3	2.1	-1.6	6	8	-2.7%
Cc1occc1C(=O)N/N=C/c1cnn(C)c1C	-8	-1.4	-0.2	0	-3	0.7%
CC(=O)c1ccc(OCC(=O)Nc2ccc(N3CCCCC3)cc2)cc1	-6	-2.6	0.2	nt	-28	1.3%
Nc1nnnn1CC(=O)N/N=C/c1cc([N+](=O)[O-])ccc1Cl	-15	7.8	0.9	nt	1	-1.1%
O=C(CN(C(=O)c1csnn1)c1cccc(Cl)c1)NC1CCCCC1	-4	-7.9	-1.1	-16	-1	-1.4%
CCCCCCCN1C(Nc2ccccc2)=NC[C@@H]1C	-21	2.1	-0.4	-17	6	-0.1%
O=C(C1CCN(S(=O)(=O)c2cccc3cccnc23)CC1)N1CCc2ccccc21	-20	-6.1	1.8	-10	-8	1.6%
O=C(Cc1ccc(Br)cc1)NNC(=O)Nc1ccc(Cl)cc1	-7	-1.0	-0.6	4	-3	1.2%

compound	D2 potentiator	D2 ag	TRPML1 ag	CtBP-E1A inh	Six1-Eya2 inh	PINK1 modulator
C/C(=N/NC(=O)c1ccc(Br)o1)c1cccc(NC(=O)c2ccc(F)cc2)c1	-4	0.2	2.4	-18	?	0.7%
COc1cc(NC(=O)COC(=O)c2ccc3ccccc3n2)cc(OC)c1	-15	-3.6	0.7	1	4	1.3%
Cc1ccccc1C(=O)c1ccc2c(c1)n(C)c(=O)n2C	-12	1.7	0.4	9	-1	?
Cc1ccc(C(=O)N2CCOCC2)cc1S(=O)(=O)N1CCCC1	-5	-5.7	0.3	8	5	-1.6%
CN1CCN(C(=O)CCN2C(=O)/C(=C\c3ccc(F)cc3)SC2=S)CC1	-7	-3.7	0.6	10	3	-1.0%
CSc1nnc2n(-c3ccccc3)c(=O)c3c4c(sc3n12)CCC4	-3	-1.9	-0.3	0	4	-0.8%
O=C(NCc1nnc(SCC(=O)N2CCCCC2)o1)c1c(F)cccc1F	14	-4.3	8.2	2	2	4.0%
CC(=O)c1cccc(NC(=O)C(C)OC(=O)c2cccc(-n3cnnn3)c2)c1 (configuration not stated)	-10	-1.0	-0.6	-1	2	-2.2%
C=C(C)Cn1c2ccc(NC(=O)NCc3ccccc3)cc2c(=O)n1C	-2	4.1	-0.1	1	9	0.6%
O=C(O)c1ccccc1C(=O)c1ccc(N2CCOCC2)c([N+](=O)[O-])c1	-6	1.8	0.6	5	5	0.2%
CCCC[n+]1ccn(-c2nc3ccccc3nc2[N-]S(=O)(=O)c2cccs2)c1	0	-3.9	0.8	-2	2	5.1%
Cc1csc(NC(=O)C(Cc2ccccc2)n2cccc2)n1 (configuration not stated)	1	-2.0	1.4	-24	-16	4.3%

compound	D2 potentiator	D2 ag	TRPML1 ag	CtBP-E1A inh	Six1-Eya2 inh	PINK1 modulator
COC(=O)c1ccc(CSC2=NCCS2)cc1	-3	-1.0	0.6	32	14	-1.1%
Cc1ccc(CNC(=O)CCC(=O)N2CC(C)Oc3ccccc32)cc1 (configuration not stated)	-12	-1.8	-0.2	-2	5	0.6%
CC(C)C[C@@H](CN)NC(=O)c1nc[nH]c1C(=O)N[C@@H](CC(C)C)C(=O)CNC[C@H](C)NC(=O)c1nc[nH]c1C(=O)N[C@@H](C)C(=O)O	-10	-2.9	-0.6	-24	-9	-0.2%
COc1ccc(-c2nc3ccccc3c(=O)n2CC(C)C)cc1	2	5.7	-0.7	5	-1	0.4%
CCCn1c(=O)n(C)c(=O)c2c(SC(C)C(=O)NCC3CCCO3)nc(CC(C)C)nc21 (configuration not stated)	-16	-5.3	-0.9	3	6	3.4%
OC(CNCCc1ccccc1)c1ccccc1 (configuration not stated)	-7	0.3	4.5	-1	-1	-1.0%[38.3 µM]
Cc1oc(-c2cccs2)nc1CN1CCN(C2CCCC2)C(CCO)C1 (configuration not stated)	-22	-6.0	-0.3	3	2	1.8%
O=C1CCN(Cc2ccccc2)S(=O)(=O)c2ccccc21	-34	0.1	1.0&-1.1	5	6	2.6%
C[C@H](N)c1nnc(SCC(N)=O)o1	-1	2.1	0.9	-19	-11	-0.3%

Bioassay records as filed in PubChem.
